High-throughput results deposited in PubChem BioAssay by Johns Hopkins Ion Channel Center.
KCNQ2 pot: potentiators of rat KCNQ2 potassium channel | Potassium voltage-gated channel subfamily KQT member 2 (Rattus norvegicus), O88943 | CHO-K1 KCNQ2, FluxOR thallium flux fluorescence; hits give high values | B-score at 10 µM | actives 0.54% (n = 310,000);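 active means fluorescence ratio B-score at least 3 SD of library B-scores, with initial fluorescence B-score within 3 SD, cut at about 5.3 in these data; same plate scores as AID 2156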;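 further: B-score of peak minus minimum over baseline fluorescence ratio after K+ and Tl+ stimulus; positive B-score means potentiation of KCNQ2 with more thallium influx and brighter signal; only the inactives scoring about 0 or higher are listed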
Target sequence (O88943 whole entry, looked up): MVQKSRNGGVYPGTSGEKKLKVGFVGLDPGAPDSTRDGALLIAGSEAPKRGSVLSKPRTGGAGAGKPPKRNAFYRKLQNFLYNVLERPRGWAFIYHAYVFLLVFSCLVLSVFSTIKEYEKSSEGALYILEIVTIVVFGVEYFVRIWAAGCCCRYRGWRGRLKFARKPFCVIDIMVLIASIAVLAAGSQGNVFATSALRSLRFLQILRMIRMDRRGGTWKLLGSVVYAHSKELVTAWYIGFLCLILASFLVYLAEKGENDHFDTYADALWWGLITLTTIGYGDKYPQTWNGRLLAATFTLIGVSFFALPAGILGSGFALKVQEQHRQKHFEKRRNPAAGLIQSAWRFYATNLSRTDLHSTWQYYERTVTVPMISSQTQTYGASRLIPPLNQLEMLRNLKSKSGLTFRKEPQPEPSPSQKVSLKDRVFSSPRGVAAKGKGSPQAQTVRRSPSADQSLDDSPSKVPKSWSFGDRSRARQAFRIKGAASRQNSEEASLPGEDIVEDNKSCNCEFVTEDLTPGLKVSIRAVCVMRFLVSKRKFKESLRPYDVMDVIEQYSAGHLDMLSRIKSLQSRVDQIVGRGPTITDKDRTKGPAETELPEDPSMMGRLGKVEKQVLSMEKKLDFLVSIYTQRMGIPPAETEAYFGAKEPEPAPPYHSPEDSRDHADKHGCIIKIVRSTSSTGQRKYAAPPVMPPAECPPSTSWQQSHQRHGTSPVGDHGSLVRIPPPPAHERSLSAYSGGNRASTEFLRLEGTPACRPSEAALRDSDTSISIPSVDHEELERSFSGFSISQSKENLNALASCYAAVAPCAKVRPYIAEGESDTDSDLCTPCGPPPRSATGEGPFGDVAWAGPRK
KCNQ2 pot baseline: further read-out of KCNQ2 pot, marked with its call; B-score; compound at 10 µM; measured here: initial fluorescence intensity artifact check;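 brightness before thallium and not channel activity; 0 = typical well and far values either way flag optical interference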
Active calls of the source: *.

How did COc1ccc(OC)c(C(=O)c2c(C)oc3cc(Br)c(O)c(CN(C)C)c23)c1 do in these assays?
KCNQ2 pot: 0.84; KCNQ2 pot baseline: 0.35

Results for CCCNC(=S)NC1CC2CCC(C1)N2Cc1ccccc1 (stereo not given) ?
KCNQ2 pot: 0.06; KCNQ2 pot baseline: 0.07

Results for COC(=O)/C=C1/N/C(=N\c2nc(C)cc(C)n2)N(c2ccccc2)C1=O ?
KCNQ2 pot: 1.24; KCNQ2 pot baseline: -0.93

How did O=C(Nc1cccc(-c2nc3cc(Cl)ccc3o2)c1)C1CCCO1 (stereo not given) do in these assays?
KCNQ2 pot: 0.21; KCNQ2 pot baseline: -0.03

What do the screens show for `Cc1sc2nc(CN3CCCC3)nc(N3CCC(C(N)=O)CC3)c2c1C`?
KCNQ2 pot: 1.52; KCNQ2 pot baseline: -0.17

What do the screens show for `CC1(c2nnc(-c3ccncc3)o2)CC(c2ccc([N+](=O)[O-])cc2)=NO1` (stereo not given)?
KCNQ2 pot: 1.26; KCNQ2 pot baseline: -0.76

Results for CC(C)(C)Cc1nc(-c2ccccn2)no1 ?
KCNQ2 pot: 0.39; KCNQ2 pot baseline: 0.12

Results for Cc1cc(C)nc(NS(=O)(=O)c2ccc(NC(=O)c3ccc(N4C(=O)CCC4=O)cc3)cc2)n1 ?
KCNQ2 pot: 0.01; KCNQ2 pot baseline: 1.37

What do the screens show for `CC1=CC2CC1C1C(=O)N(c3ccc(S(=O)(=O)Nc4nc(C)cc(C)n4)cc3)C(=O)C21` (stereo not given)?
KCNQ2 pot: 0.43; KCNQ2 pot baseline: 1.02

Results for CC1CCCC(C)N1CCNC(=O)Nc1ccc(Cl)cc1 (stereo not given) ?
KCNQ2 pot: 1.02; KCNQ2 pot baseline: 0.35

Results for COc1cccc2cc(-c3ccnc(N)n3)oc12 ?
KCNQ2 pot: 0.3; KCNQ2 pot baseline: 1.4

What do the screens show for `COc1ccc(C(=O)N2CCN(C(=O)C3COc4ccccc4O3)CC2)cc1` (stereo not given)?
KCNQ2 pot: 0.01; KCNQ2 pot baseline: 0.14

What do the screens show for `CCN(CC(=O)Nc1ccc(N2CCOCC2)cc1)C(=O)c1ccc(C#N)cc1`?
KCNQ2 pot: 1.61; KCNQ2 pot baseline: -0.56

Results for O=C1c2ccccc2S(=O)(=O)c2cc(N3CCN(C(=O)c4ccccc4)CC3)ccc21 ?
KCNQ2 pot: 2.74; KCNQ2 pot baseline: -0.21

How did COc1ccc(N2CC(C(=O)Nc3nnc(SCC(=O)N4CCCC4)s3)CC2=O)cc1 (stereo not given) do in these assays?
KCNQ2 pot: 1.72; KCNQ2 pot baseline: 1.5

How did O=C(NCCc1ccccc1)c1ccc(Cl)c(S(=O)(=O)N2CCCC2)c1 do in these assays?
KCNQ2 pot: 0.09; KCNQ2 pot baseline: 2.11

Results for CC(C(=O)NCc1ccc2c(c1)OCO2)N(c1ccccc1)S(C)(=O)=O (stereo not given) ?
KCNQ2 pot: 0.71; KCNQ2 pot baseline: 1.21

What do the screens show for `CC[n+]1ccc(C)c2cc(P(=O)(c3ccccc3)c3ccccc3)ccc21`?
KCNQ2 pot: 0.76; KCNQ2 pot baseline: -0.04

Results for COC(=O)c1ccc(S(=O)(=O)N2CCOCC2)o1 ?
KCNQ2 pot: 0.19; KCNQ2 pot baseline: -0.06

What do the screens show for `Cc1cc(C)c(NC(=O)CSc2nc3ncc(Br)cc3[nH]2)c(Cl)c1`?
KCNQ2 pot: 0.01; KCNQ2 pot baseline: 1.41

Results for COc1cc(OC)cc(C(=O)NNC(=O)CN2C(=O)NC(C)(c3ccc(C)cc3)C2=O)c1 (stereo not given) ?
KCNQ2 pot: 1.04; KCNQ2 pot baseline: 0.04

Results for CC1(c2nnc(-c3ccc(F)cc3)o2)CC(c2ccncc2)=NO1 (stereo not given) ?
KCNQ2 pot: 0.97; KCNQ2 pot baseline: 1.41

How did O=C(CCS(=O)(=O)c1cccs1)NC1CCCCCC1 do in these assays?
KCNQ2 pot: 1.46; KCNQ2 pot baseline: -1.52

How did Cc1ccc(/C=N/Nc2ccccn2)s1 do in these assays?
KCNQ2 pot: 0.2; KCNQ2 pot baseline: -0.89

How did Cc1cccc2sc(N3CCN(C(=O)c4cccs4)CC3)nc12 do in these assays?
KCNQ2 pot: 0.64; KCNQ2 pot baseline: -0.07

What do the screens show for `ONC(=Nc1ccccc1)c1ccccc1Cl`?
KCNQ2 pot: 0.7; KCNQ2 pot baseline: 1.23

How did O=C(CCC(=O)c1cccs1)Nc1nnc(C2CC2)s1 do in these assays?
KCNQ2 pot: 0.89; KCNQ2 pot baseline: -1.93

How did CC(/C=C/c1ccco1)=N\NC(=O)c1cccc(Cl)c1 do in these assays?
KCNQ2 pot: 1.14; KCNQ2 pot baseline: 0.92

How did CC1CCc2c(sc(NC(=O)COC(=O)c3ccc(NC(=O)CC#N)cc3)c2C#N)C1 (stereo not given) do in these assays?
KCNQ2 pot: 0.02; KCNQ2 pot baseline: 1.51

Results for COc1cccc(OC)c1C(=O)Nc1nnc(-c2cccs2)s1 ?
KCNQ2 pot: 0.78; KCNQ2 pot baseline: -0.01

Results for O=C(CCC(=O)OCC(F)(F)C(F)F)Nc1ccccc1F ?
KCNQ2 pot: 1.67; KCNQ2 pot baseline: -2.23

What do the screens show for `O=C(Cn1c(=O)cnc2ccccc21)N1CCN(S(=O)(=O)c2ccc(F)cc2)CC1`?
KCNQ2 pot: 1.43; KCNQ2 pot baseline: 0.18

What do the screens show for `Cc1ccc(OCCSc2nnc(C)c(=O)n2N)cc1`?
KCNQ2 pot: 0.33; KCNQ2 pot baseline: 0.19

How did O=Cc1ccc(O)cc1O do in these assays?
KCNQ2 pot: 0.6; KCNQ2 pot baseline: -1.65

Results for COc1ccccc1C(=O)NC(=S)Nc1ccc(NC(=O)c2cccs2)cc1 ?
KCNQ2 pot: 0.48; KCNQ2 pot baseline: 0.87

Results for CC1(C)Cc2noc(N)c2C(C)(C)N1O ?
KCNQ2 pot: 0.48; KCNQ2 pot baseline: -0.28

How did CC(C)(C)C(=O)NC1(C(F)(F)F)NC(=O)N(Cc2ccccc2)C1=O (stereo not given) do in these assays?
KCNQ2 pot: 0.43; KCNQ2 pot baseline: 1.15

Results for O=C(CC(Cc1ccccc1)C(=O)O)Nc1ccccc1 (stereo not given) ?
KCNQ2 pot: 0.9; KCNQ2 pot baseline: 0.6

What do the screens show for `N#Cc1c(-c2ccc(Cl)cc2)ccn2nc(CCC(=O)O)nc12`?
KCNQ2 pot: 0.04; KCNQ2 pot baseline: -0.22

What do the screens show for `CSc1ccc(S(=O)(=O)NCC(=O)OCC(=O)N(C)C2CCCCC2)cc1[N+](=O)[O-]`?
KCNQ2 pot: 0.85; KCNQ2 pot baseline: -0.25

Looked up by compound from the list above:
Results for CC1(C)Cc2noc(N)c2C(C)(C)N1O ?
KCNQ2 pot: 0.48; KCNQ2 pot baseline: -0.28

Results for COc1ccccc1C(=O)NC(=S)Nc1ccc(NC(=O)c2cccs2)cc1 ?
KCNQ2 pot: 0.48; KCNQ2 pot baseline: 0.87

How did O=C(CCS(=O)(=O)c1cccs1)NC1CCCCCC1 do in these assays?
KCNQ2 pot: 1.46; KCNQ2 pot baseline: -1.52

How did CC1CCc2c(sc(NC(=O)COC(=O)c3ccc(NC(=O)CC#N)cc3)c2C#N)C1 (stereo not given) do in these assays?
KCNQ2 pot: 0.02; KCNQ2 pot baseline: 1.51

Returning to the listing with the 2 entries that preceded the break.
What do the screens show for `N#Cc1c(-c2ccc(Cl)cc2)ccn2nc(CCC(=O)O)nc12`?
KCNQ2 pot: 0.04; KCNQ2 pot baseline: -0.22

What do the screens show for `CSc1ccc(S(=O)(=O)NCC(=O)OCC(=O)N(C)C2CCCCC2)cc1[N+](=O)[O-]`?
KCNQ2 pot: 0.85; KCNQ2 pot baseline: -0.25

How did Cc1ccc(C2C(N)C(=O)N2c2ccc(C)cc2)cc1 (stereo not given) do in these assays?
KCNQ2 pot: 0.47; KCNQ2 pot baseline: -0.02

How did O=C(NNc1nc(-c2ccccc2)cs1)c1ccccc1 do in these assays?
KCNQ2 pot: 0.39; KCNQ2 pot baseline: -0.76

What do the screens show for `COc1ccc(N2CCN(C(=O)c3cc4cc(Cl)ccc4[nH]3)CC2)cc1`?
KCNQ2 pot: 0.36; KCNQ2 pot baseline: 0.96

What do the screens show for `O=C(NCCC(=O)N1CCC2(CC1)NCCc1[nH]cnc12)c1cccc(Br)c1`?
KCNQ2 pot: 1.13; KCNQ2 pot baseline: -0.81

What do the screens show for `O=C(CSc1ncn[nH]1)Nc1ccc(S(=O)(=O)Nc2ncccn2)cc1`?
KCNQ2 pot: 0.67; KCNQ2 pot baseline: 1.39

What do the screens show for `Cc1cc(-c2nnc(CCC(=O)N(C)Cc3ccsc3)o2)no1`?
KCNQ2 pot: 0.41; KCNQ2 pot baseline: 0.52

What do the screens show for `Cc1ccc(-c2nnc(N3CCOCC3)c3ccccc23)cc1S(N)(=O)=O`?
KCNQ2 pot: 0.4; KCNQ2 pot baseline: -0.54

How did Cc1noc(C(=O)NCc2ccc(F)cc2)c1Cl do in these assays?
KCNQ2 pot: 1.46; KCNQ2 pot baseline: 1.08

What do the screens show for `COC(=O)c1ccc(C2C(Oc3ccc(OC)cc3)C(=O)N2CCc2ccc(OC)c(OC)c2)cc1` (stereo not given)?
KCNQ2 pot: 0.01; KCNQ2 pot baseline: -1.9

What do the screens show for `NC(=O)c1ccc[n+](CCC[n+]2cccc(C(N)=O)c2)c1`?
KCNQ2 pot: 1.28; KCNQ2 pot baseline: 0.57

What do the screens show for `CCN(CC)CCOC(c1ccccc1)c1ccc(C)cc1` (stereo not given)?
KCNQ2 pot: 0.44; KCNQ2 pot baseline: 0.17

Results for Cc1cccc(NC(=O)CSc2cc(C)c(C#N)c3nc4ccccc4n23)c1 ?
KCNQ2 pot: 1.09; KCNQ2 pot baseline: -0.8

Results for C=CCOc1c(Br)cc(CNc2ccc3[nH]c(=O)[nH]c3c2)cc1OCC ?
KCNQ2 pot: 0.68; KCNQ2 pot baseline: 0.87

Results for Cc1ccc(SCCC(=O)NC2CC2)cc1 ?
KCNQ2 pot: 0.49; KCNQ2 pot baseline: -0.94

What do the screens show for `CC(=O)NC1CSCC1OC(C)=O` (stereo not given)?
KCNQ2 pot: 0.39; KCNQ2 pot baseline: 0.19

What do the screens show for `COc1ccc(CNC(=O)CN(c2cc(C)cc(C)c2)S(=O)(=O)c2c(C)noc2C)cc1`?
KCNQ2 pot: 0.05; KCNQ2 pot baseline: 0.02

How did COc1ccc(/C=C(\C#N)C(=O)OCC(=O)N(C)C2CCS(=O)(=O)C2)cc1 (stereo not given) do in these assays?
KCNQ2 pot: 1.24; KCNQ2 pot baseline: -0.77

What do the screens show for `Cc1ccc(Oc2ccc3c(c2)C(=O)N(c2ccc(S(=O)(=O)Nc4nccs4)cc2)C3=O)cc1`?
KCNQ2 pot: 0.17; KCNQ2 pot baseline: 0.04

How did CCN(CC(=O)NCc1ccc(Cl)cc1)S(=O)(=O)c1ccc(F)cc1 do in these assays?
KCNQ2 pot: 2.52; KCNQ2 pot baseline: -1.17

How did CC(C)N(CCCNC(=O)C1CCC(CNS(=O)(=O)c2ccccc2)CC1)Cc1ccccc1 (stereo not given) do in these assays?
KCNQ2 pot: 1.43; KCNQ2 pot baseline: -0.04

In the list so far, four contain bromine.
How did COc1ccc(OC)c(C(=O)c2c(C)oc3cc(Br)c(O)c(CN(C)C)c23)c1 do in these assays?
KCNQ2 pot: 0.84; KCNQ2 pot baseline: 0.35

What do the screens show for `Cc1cc(C)c(NC(=O)CSc2nc3ncc(Br)cc3[nH]2)c(Cl)c1`?
KCNQ2 pot: 0.01; KCNQ2 pot baseline: 1.41

What do the screens show for `O=C(NCCC(=O)N1CCC2(CC1)NCCc1[nH]cnc12)c1cccc(Br)c1`?
KCNQ2 pot: 1.13; KCNQ2 pot baseline: -0.81

Results for C=CCOc1c(Br)cc(CNc2ccc3[nH]c(=O)[nH]c3c2)cc1OCC ?
KCNQ2 pot: 0.68; KCNQ2 pot baseline: 0.87

Additional compounds
How did CCn1c(C)nnc1SCC(=O)Nc1ccc(Cl)cc1 do in these assays?
KCNQ2 pot: 0.8; KCNQ2 pot baseline: 0.13

How did Cc1ccc2cc(C#N)c(NCc3ccco3)nc2c1 do in these assays?
KCNQ2 pot: 2.13; KCNQ2 pot baseline: -0.31

How did O=C(NNc1cc(Cl)ccc1Cl)c1cccs1 do in these assays?
KCNQ2 pot: 3.23; KCNQ2 pot baseline: -0.41

Results for CCCOc1ccc(-c2csc(NC(=O)CN3C(=O)CCC3=O)n2)cc1 ?
KCNQ2 pot: 0.04; KCNQ2 pot baseline: -0.13

Results for CC1CC(C)CN(c2oc(-c3ccccc3F)nc2C#N)C1 (stereo not given) ?
KCNQ2 pot: 1; KCNQ2 pot baseline: 0.14

How did CCC(C)c1ccc(NC(=S)N2CCCC2)cc1 (stereo not given) do in these assays?
KCNQ2 pot: 0.77; KCNQ2 pot baseline: 0.15

Results for COc1cc(C(=O)NCC(c2ccco2)N2CCCC2)ccc1OCc1c(C)noc1C (stereo not given) ?
KCNQ2 pot: 1.71; KCNQ2 pot baseline: -0.22

How did CCCc1cc(=O)oc2c3c(cc(OCC(=O)NCC4CCC(C(=O)O)CC4)c12)OC(C)(C)CC3 (stereo not given) do in these assays?
KCNQ2 pot: 0.81; KCNQ2 pot baseline: 0.32

How did O=C(CSCc1ccc(Cl)cc1)Nc1ccccc1O do in these assays?
KCNQ2 pot: 1.22; KCNQ2 pot baseline: 0.31

Results for O=C(O)c1ccc(/C=N/Nc2ccc(Cl)nn2)cc1 ?
KCNQ2 pot: 0.63; KCNQ2 pot baseline: 0.87

How did O=C(C1=C(O)C(=O)N(CC2CCCO2)C1c1cccnc1)c1ccco1 (stereo not given) do in these assays?
KCNQ2 pot: 0.83; KCNQ2 pot baseline: 1.12

These rows are one share of the data. The share of hits here may be higher or lower than overall.
